# HCMV UL50-53 inh: disrupts HCMV UL50-UL53 complex binding; HTRF UL50-UL53 interaction, normalized percent inhibition; inhibition, % (test concentration not listed); 0.15% of 190,000 active; AID 1918969;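 active means both replicates at 50% or more, plus weaker picks with an unusually low signal ratio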;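 further: stock transfer was 100 nL into about 20 µL; 0% = negative control wells and 100% = wells with untagged competitor protein; inactives centre near -12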
# Sa growth inh: blocks Staphylococcus aureus growth; S. aureus RN4220 growth, OD600, 20 h, 42 °C; active compounds read low; relative growth, % (concentration not given with the values); 0.53% of 170,000 active;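 active means growth at 42 °C up to 50% and 20 or more points under that at 30 °C, or under 10% at both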;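 further: 300 nL library stock went into each well; scaled to the means of positive and negative controls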
# GIV Gai3 FP: inhibitors of GIV GBA-motif binding to rat Galpha-i3. P08753. Galpha-i3/FITC-GIV peptide fluorescence polarization, 90 min; active compounds read low; scaled: aluminum fluoride 0%, vehicle 100%. percent of control (FP), % (no concentration beside the values). 0.42% of 210,000 active. AID 1224905;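 active means replicate mean at 85% of control or lower, very high polarization wells dropped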;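 further: wells of about 15 µL received 100 nL stock; the first replicate is given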
# Target sequence (P08753 whole entry, looked up): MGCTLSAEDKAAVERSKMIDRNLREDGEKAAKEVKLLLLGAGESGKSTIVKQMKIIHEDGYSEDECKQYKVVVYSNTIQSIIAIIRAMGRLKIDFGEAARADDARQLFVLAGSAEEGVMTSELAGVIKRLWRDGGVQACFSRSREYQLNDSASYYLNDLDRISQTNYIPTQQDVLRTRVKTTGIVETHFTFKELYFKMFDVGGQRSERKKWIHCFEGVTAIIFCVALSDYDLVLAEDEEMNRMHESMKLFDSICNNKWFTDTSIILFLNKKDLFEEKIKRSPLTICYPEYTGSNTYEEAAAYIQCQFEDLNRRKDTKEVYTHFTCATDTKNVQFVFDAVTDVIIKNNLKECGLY
# Sa growth inh second temp: further read-out of Sa growth inh, marked with its call; relative growth, %; measured here: growth at 30 °C;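 optical density after 20 h as mean of two plates; 100% = untreated growth and lower means inhibition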
# Starred values were filed as active, the others as inactive; x = no result given; & = joins results of further samples.
molecule | HCMV UL50-53 inh | Sa growth inh | Sa growth inh second temp | GIV Gai3 FP
O=C(/C=C/c1ccccc1)Nc1ncn[nH]1 | -7 | 93 | 97 | 93
CCc1cccc(NC(=O)c2ccc(CNS(=O)(=O)c3ccc4c(c3)C(C)(C)C(=O)N4C)cc2)c1 | x | 116 | 95 | 101
CCCCSC1=C(C#N)C(=O)NC(CCC)S1 (stereo unspecified) | -35 | 79 | 76 | 98
CC(C)(C)NC(=O)c1cccc(S(=O)(=O)N2CCCC2)c1 | 7 | 128 | 101 | x
Cc1c(C(=O)Nc2c(F)cccc2F)sc2ncn(Cc3ccccc3F)c(=O)c12 | x | 122 | 85 | 106
CC1=C(C(=O)OC2CCCC2)C(c2c(F)cccc2Cl)CC(=O)N1 (stereo unspecified) | -2&-18 | 117 | 97 | 107&98
CC(CNC(=O)C1CCN(S(=O)(=O)c2ccc3c(ccn3C)c2)CC1)c1ccccc1 (stereo unspecified) | x | 81 | 84 | 99
Cc1c(C(=O)N2CCN(Cc3ccc4c(c3)OCO4)CC2)sc2ncn(CC(=O)N3CCOCC3)c(=O)c12 | -25 | x | x | 106
Clc1ccc(CNc2ccc3c(c2)OCCO3)c(Cl)c1 | -10 | 82 | 82 | x
COCCCn1c(=C(C#N)C#N)s/c(=C/c2ccncc2)c1=O | -12 | 84 | 83 | x
Cc1ccc(S(=O)(=O)c2ccc(C(=O)N3CCN(c4ccccn4)CC3)cn2)cc1C | 9 | x | x | 105
Cc1ccc(/C=C/c2onc(C)c2S(=O)(=O)N2CCCC(C(=O)N3CCCC3)C2)cc1 (stereo unspecified) | -25 | x | x | 107
Cn1c(=O)oc2cc(S(=O)(=O)NCc3cccn3Cc3ccccc3)ccc21 | -13 | x | x | 106
Cc1cc(SCC(=O)O)n2nc(C)c(-c3ccc(Cl)cc3)c2n1 | -2 | 87 | 79 | 102
CC1CN(C(=O)CCc2ccccc2)C(C)CN1C(=O)CCc1ccccc1 (stereo unspecified) | -10 | 109 | 83 | 98
NC(=O)c1ccccc1OCC1CC1 | -8 | 104 | 90 | 99
C=CCNC(=O)C(C)Sc1nnc2c(n1)[nH]c1ccccc12 (stereo unspecified) | -57 | 80 | 85 | 99
CNC(=O)Nc1cccc(C(F)(F)F)c1 | -3 | 102 | 96 | 102
CC1CCN(c2ccc(C(N)=O)cc2NC(=O)c2ncoc2-c2ccc3ccccc3c2)CC1 | -1 | 115 | 87 | 106
CSc1n[nH]c(-c2cc(C(F)(F)F)cc(C(F)(F)F)c2)n1 | -5 | 58 | 51 | 104
CC1CCN(c2nc3c(S(=O)(=O)c4ccccc4)nnn3c3ccccc23)CC1 | 20 | 98 | 98 | 106
O=C1CCCN1CC12CC3CC(CC(C3)C1)C2 | x | 89 | 80 | 101
Cc1nc(SCC(=O)N(C)c2ccccc2)nc(C)c1C | -1 | 106 | 109 | x
O=C(NCc1ccccc1)/C(=C/c1ccco1)NC(=O)c1ccco1 | -70 | 67 | 73 | 106
COc1cc2c(cc1OC)C(c1ccccc1)N(C(=O)Cn1cnnn1)CC2 (stereo unspecified) | -24 | 115 | 85 | x

# (listing goes on)
molecule | HCMV UL50-53 inh | Sa growth inh | Sa growth inh second temp | GIV Gai3 FP
CCc1ccc(NC(=O)CSC2=Nc3ccccc3C3=NC(CCC(=O)NCc4cccs4)C(=O)N23)cc1 (stereo unspecified) | x | 91 | 88 | 100
Cc1ccc(N2CCN(C(=O)NCc3noc4ccccc34)CC2C)cc1 (stereo unspecified) | x | 86 | 87 | 106
CN(CCc1ccccn1)C(=O)c1cc2c(s1)-c1ccccc1OC2 | -17 | 122 | 93 | 108
O=C(OCc1cccs1)c1cccnc1Cl | 4 | 114 | 93 | x
CCCCn1c(=S)[nH]c2ccccc2c1=O | x | 105 | 83 | 98
O=C(NCc1ccco1)c1ccc(Cn2c(SCc3ccccc3)nc3cccnc32)cc1 | x | 108 | 80 | 98
COc1ccc(S(=O)(=O)Nc2cccc(-c3ccc(N4CCCCCC4)nn3)c2)cc1F | x | 105 | 93 | 106
CCNc1oc(-c2ccc(COc3ccc(Cl)cc3)o2)nc1C#N | -34 | 95 | 84 | 102
COc1ccc(OCC(=O)N2CCN(c3ccccc3)CC2)cc1 | -10 | 97 | 78 | x
O=C(c1ccccc1S(=O)(=O)NCc1ccccc1)N1CCCC1 | x | 96 | 68 | 93
CCOc1ccccc1C1CC(=O)Nc2n[nH]c(C)c21 (stereo unspecified) | -2 | x | x | 98
COC(=O)c1c(NC(=O)c2ccc(S(=O)(=O)N3CCC(C)CC3)cc2)sc2c1CCN(C)C2 | x | 110 | 75 | 100&118
CCn1c(=O)c2sccc2n2c(CCCC(=O)N3CCN(c4ccccc4)CC3)nnc12 | -29 | 107 | 95 | 108
Cc1ccc(-n2c3c4c(nc(N5CCOCC5)c(C#N)c4c(C#N)c2=S)NC2(CCCCC2)N3)cc1 | -32 | 80 | 88 | x
N#CCC(=O)c1ccc(Br)cc1 | -13 | 65 | 23 | 111
COc1cccc(CNC(=O)c2ccc3cn[nH]c3c2)c1 | 1 | x | x | 106
CC(C)(C)c1ccc(-c2noc(-c3ccccc3)n2)cc1 | -6 | 108 | 87 | 111
O=C(NC1(C(F)(F)F)C(=O)Nc2c1c(=O)[nH]c(=O)n2CCc1ccccc1)c1ccc(Cl)cc1 (stereo unspecified) | x | 121 | 91 | 104
O=C1CCC(C(=O)Nc2nnc(Cc3ccccc3)s2)=NN1 | -11 | 101 | 94 | x
O=C(Nc1ccc(-c2nc3ccccc3o2)cc1)c1ccc(C(=O)c2ccccc2)cc1 | x | 83 | 105 | 106
O=C(NC12CC3CC(CC(C3)C1)C2)c1ccco1 | -29 | 94 | 86 | 102
O=C(COc1ccccc1)N1c2ccccc2Sc2ccccc21 | 33 | 80 | 85 | 105
NC(CCCP(=O)(O)O)C(=O)O (stereo unspecified) | -15 | x | x | 107
CCc1ccc(-n2c(N3CCN(c4cccc(C)c4C)CC3)nc3ccccc3c2=O)cc1 | -32 | 92 | 87 | 106
CCOCc1c[nH]c(=O)[nH]c1=O | x | 101 | 84 | 98

# Ordered by molar mass (highest first): 3 of the compounds above.
molecule | HCMV UL50-53 inh | Sa growth inh | Sa growth inh second temp | GIV Gai3 FP
Cc1c(C(=O)N2CCN(Cc3ccc4c(c3)OCO4)CC2)sc2ncn(CC(=O)N3CCOCC3)c(=O)c12 | -25 | x | x | 106
CCc1cccc(NC(=O)c2ccc(CNS(=O)(=O)c3ccc4c(c3)C(C)(C)C(=O)N4C)cc2)c1 | x | 116 | 95 | 101
CCCCn1c(=S)[nH]c2ccccc2c1=O | x | 105 | 83 | 98

# Other compounds follow.
SMILES,HCMV UL50-53 inh,Sa growth inh,Sa growth inh second temp,GIV Gai3 FP
Cc1cc(C)n(C(=O)c2sccc2S(=O)(=O)N(C)c2ccc(Cl)cc2)n1,5,x,x,99
CN(C)C(=S)SCc1ccc(Cl)cc1Cl,8,84,97,x
O=C(Nc1ccc(-c2cc(C(F)(F)F)nn2-c2ccccc2)cc1)c1cccc(F)c1,-14,97,91,102
CNC(=O)Cn1c(=O)c2cccn2c2cccnc21,x,90,88,95
CCOc1ccccc1NC(=O)Cn1cnc2onc(-c3ccc(Cl)cc3)c2c1=O,-21,x,x,101
O=C(COc1ccc(Cl)cc1)Nc1ccc2nc(SCC(=O)N3CCCC3)sc2c1,-18,119,80,106
COc1ccc(C2CC2/C(=N/O)c2ccccn2)cc1 (stereo unspecified),12,x,x,105
O=C1CC(c2cc(F)cc(F)c2)Cc2nc(NCC3CCCO3)ncc21 (stereo unspecified),14,x,x,100
CS(=O)(=O)NCCc1c[nH]c2ccc(Cl)cc12,-5,91,91,102
Cc1cccc(N2CCN(c3ncc(C(=O)O)cc3NS(=O)(=O)c3ccccc3)CC2C)c1 (stereo unspecified),4,x,x,105
COC(=O)CCS(=O)(=O)c1nc(-c2ccc(OC)c(OC)c2)cc(C(F)(F)F)n1,-20,81,83,103
CC(C)(/C=N/N(Cc1ccccc1)c1ccccc1)CO,-1,105,81,x
Cc1cc(C)cc(NC(=O)CCn2c(C(F)(F)F)nc3cc(S(=O)(=O)N(C)C)ccc32)c1,-32,x,x,110
Cc1cnc(N2CCN(NC(=S)Nc3cccnc3)CC2)c(Cl)c1,-7,86,60,103
CCOC(=O)C1=NNC2C(=O)N(CC)C(=O)C12 (stereo unspecified),-20,94,76,100
COc1ccc(OC)c(-c2noc(CSc3nnc(Cc4ccccc4)n3-c3cccc(C)c3)n2)c1,-19,104,74,98
O=C(/C=C/Sc1ccc(Cl)cc1)c1ccccc1,-22,97,86,100
Oc1ccc(CN2CCN(Cc3ccccc3)CC2)c2cccnc12,-1,51,47,100
CC(C)(C)C(=O)Nc1ccccc1-c1nc(-c2ccccc2)no1,-28,x,x,103
CCC(C(=O)Nc1ccc(F)cc1F)n1nc(-c2ccccc2)c2c(c1=O)CCCC2 (stereo unspecified),-19,96,72,102

# The list goes on, overlapping the part above by 4 compounds.
SMILES,HCMV UL50-53 inh,Sa growth inh,Sa growth inh second temp,GIV Gai3 FP
O=C(/C=C/Sc1ccc(Cl)cc1)c1ccccc1,-22,97,86,100
Oc1ccc(CN2CCN(Cc3ccccc3)CC2)c2cccnc12,-1,51,47,100
CC(C)(C)C(=O)Nc1ccccc1-c1nc(-c2ccccc2)no1,-28,x,x,103
CCC(C(=O)Nc1ccc(F)cc1F)n1nc(-c2ccccc2)c2c(c1=O)CCCC2 (stereo unspecified),-19,96,72,102
COc1ccc2c(c1)c(=O)c(C(=O)c1ccc(Cl)cc1)cn2CC(=O)Nc1ccc2c(c1)OCCO2,7,102,93,110
NCC(O)c1ccc(O)c(O)c1 (stereo unspecified),-48&-32,x,x,105
Cc1ccc(Cc2c(C)nc(NCc3ccccc3)[nH]c2=O)cc1,-43,102,93,107
c1ccc(Cn2c(NCc3ccco3)nc3ccccc32)cc1,-24,83,57,103
Cc1c(Cl)cccc1Nc1c(C(=O)N2CCOCC2)cnc2ccccc12,-14,x,x,99
COc1ccccc1N=c1oc2cc(OC(C)=O)ccc2cc1C(=O)NC(C)=O,-65,x,x,109
Cc1cccc(OC(=O)CSc2nnc(CNC(=O)c3ccccc3)o2)c1C,-14,102,91,103
Cc1ccccc1OCc1ccc(C(=O)NC(C)C)o1,-3,103,96,106
COc1ccc(Cl)cc1NC(=O)c1c(C(=O)Nc2cccc(C)c2C)sc2nc(C)cc(=O)n12,-12,100,83,100
O=C(Cc1noc2ccccc12)NCCN1CCN(Cc2ccccc2)CC1,-26,91,89,105
COc1cccc(-c2nn(Cc3nc(-c4ccc(Cl)cc4)oc3C)c(=O)c3noc(C)c23)c1,-18,x,x,102
O=C(Nc1cccc(-c2cn3ccsc3n2)c1)c1cccs1,-11,91,78,99
Cc1cc(C(=O)N2CCCC2)on1,-7,97,93,99
CCOC(=O)c1ccc(OC(=O)CCCCCN=C(N)N)cc1,-8&-13&-1&-30,105,99,x
N#Cc1ccc(S(=O)(=O)N2CCNCC2)cc1,-4,123,85,104
Cc1ccc2cccc(NC(=O)c3ccc(C#N)cc3F)c2n1,9,91,98,106
Cc1ccccc1C(=O)NCCc1ccc(S(N)(=O)=O)cc1,6,101,92,x
CCCOc1ccc(C2NC(=O)NC(C)=C2C(=O)OCCSCC)cc1OC (stereo unspecified),-24,x,x,102
CSc1noc(-c2ccc(C(C)(C)C)cc2)c1C#N,8,129,93,100
CCOC(=O)c1ccc(NS(=O)(=O)c2ccc(Br)s2)cc1,-1,84,71,108

# New compounds follow
SMILES,HCMV UL50-53 inh,Sa growth inh,Sa growth inh second temp,GIV Gai3 FP
Cc1cc(=O)c2c(=O)oc3ccccc3c2o1,-37,97,91,100
CCCn1c(SCC(=O)c2cc(C)n(C)c2C)n[nH]c1=O,-22,81,87,x
CCCN1C(=O)CCN(C(C)=O)c2ccccc21,4,92,93,x
COc1ccccc1NC(=O)c1c(NC(=O)Cc2ccccc2)sc2c1CCC(C(C)(C)C)C2 (stereo unspecified),22,93,104,103
CCc1c(C)nc2ncnn2c1N1CCN(c2ccccc2)CC1,-5,x,x,98
CC(C)NC(=O)CSc1ccc2c(c1)OCCO2,11,99,96,x
CCOC(=O)c1c(CNC(=O)c2ccc(N3CCOCC3)nc2)c(C)n(C2CC2)c1C,-14,96,84,108
CCn1c(C)cc2cc(N)ccc21,-16,77,35,99
COc1cc(C(=O)OCc2cc(=O)n3nc(C4CCCCC4)sc3n2)cc(OC)c1OC,x,76,95,109
O=C1CC(c2nc(-c3ccc(N4CCCC4)cc3)no2)CN1c1ccccc1 (stereo unspecified),14,x,x,104
COc1ccc(OCC(NC(=O)Cn2nc(C)c3ccccc3c2=O)C(C)C)cc1 (stereo unspecified),-11,97,84,97

# Record cards (already shown). Values in the order: HCMV UL50-53 inh	Sa growth inh	Sa growth inh second temp	GIV Gai3 FP
# `CCn1c(C)cc2cc(N)ccc21` as listed: -16	77	35	99
# `CC(C)NC(=O)CSc1ccc2c(c1)OCCO2` as listed: 11	99	96	x
# `COc1ccc(OCC(NC(=O)Cn2nc(C)c3ccccc3c2=O)C(C)C)cc1` (stereo unspecified) as listed: -11	97	84	97
# `CCCn1c(SCC(=O)c2cc(C)n(C)c2C)n[nH]c1=O` as listed: -22	81	87	x
# `O=C1CC(c2nc(-c3ccc(N4CCCC4)cc3)no2)CN1c1ccccc1` (stereo unspecified) as listed: 14	x	x	104
